# Compound activity from PubChem BioAssay.
# PrP UTR inh: suppresses PrP 5' UTR mRNA reporter expression. cell-based PrP 5' UTR mRNA reporter, plate reader. inhibition, % (concentration not given with the values). 340,000 compounds, 0.35% hits;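 active means every replicate at 50% or more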;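 further: 0 = median of the neutral control wells; tested in H4 reporter cells; numbers are from one replicate; inactives centre near -14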
# Mtb hypoxia rep: Mtb hypoxia fluorescent reporter inhibition; AID 1159583; 300,000 compounds, 0.1% hits; M. tuberculosis hypoxia-regulated fluorescent reporter, fluorescence; fluorescence inhibition, % (no concentration beside the values);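 active means 35 to 45% if threefold the growth effect, above 45% if 1.5-fold the growth effect; inactive means the rest, general growth blockers included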;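 further: wells of about 50 µL received 100 nL stock; 0% = vehicle wells and 100% = reference inhibitor wells; whole bacteria with a GFP reporter of the hypoxia response; strong numbers were not always called active; many hits fall short of the cut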
# Autofluor counter: flagged as autofluorescent in microsphere protease counterscreen | fluorescence intensity (test concentration not listed) | AID 624483 | 360,000 compounds, 3.1% hits | compound autofluorescence counterscreen, microsphere flow cytometry; active compounds read high;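 active means at least 3 SD above the mean of all compounds, about 16000 in these data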;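 further: 100 nL of 1 mM stock went into each well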
# ugtP null kill: growth inhibition of S. aureus ugtP deletion strain. 330,000 compounds, 0.54% hits. S. aureus RN4220 ugtP deletion, OD600 growth, 16 h; some inactives read as strong as hits. growth inhibition, % (no concentration beside the values);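 active means z-score under -3 and OD600 up to 0.15 on both plates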;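 further: plate controls were untreated wells for no effect and antibiotic for full effect; wells of about 80 µL received 100 nL stock; the first replicate is given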
# BJeLR lethal: BJeLR cell viability loss. BJeLR (HRASV12) viability, CellTiter-Glo ATP luminescence, 48 h; reference of the scale not given here. inhibition, % (no concentration beside the values). 300,000 compounds, 0.17% hits. AID 1554;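 active means replicate mean above 50%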;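 further: 50 nL library stock added to about 25 µL; numbers are from one replicate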
# Sa RN4220 lethal: kills Staphylococcus aureus RN4220 | S. aureus RN4220 growth, OD600, 16 h | inhibition, % (no concentration beside the values) | 330,000 compounds, 0.33% hits;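 active means z-score of -3 or lower and OD600 up to 0.18 on both plates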;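 further: plate controls were untreated cells for no effect and reference antibiotic for full effect; stock transfer was 100 nL into about 80 µL; one replicate is shown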
# Mtb hypoxia rep growth: also measured in Mtb hypoxia rep; calls as there; growth inhibition, %; measured here: M. tuberculosis growth (absorbance);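 0% = vehicle and 100% = reference antibiotic; read after six days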
# Active calls of the source: *; / = not tested or not shown. Rows are unselected (roughly 4% active in at least one column).
molecule	PrP UTR inh	Mtb hypoxia rep	Mtb hypoxia rep growth	Autofluor counter	ugtP null kill	BJeLR lethal	Sa RN4220 lethal
O=C(O)CC(CC(=O)Nc1ccc(N2CCOCC2)cc1)c1ccccc1 (stereo not drawn)	-32	-3	3	3998	-8	4	-3.8
O=C(OCCN1CCOCC1)c1ccccc1Cl	-31	5	2	4365	5	-8	3.0
Cc1ccc(S(=O)(=O)NCc2ccc(C(=O)N3CCN(Cc4ccccc4)CC3)cc2)cc1	-4	6	-6	13534	-2	3	4.2
CCc1ccccc1NC(=O)c1cc(S(=O)(=O)N2CCCC2)c[nH]1	-29	6	8	4954	7	-2	-2.1
O=C(Nc1nc2c(s1)CCCC2)C1COc2ccccc2O1 (stereo not drawn)	1	5	6	4042	6	-12	-2.1
O=C(NN=Cc1cccnc1)c1cc(-c2ccccc2)nc2c(Cl)cccc12	/	-2	0	/	11	/	-7.7
CC(C)NC(=O)CNc1ccc(C(F)(F)F)cc1[N+](=O)[O-]	-20	11	-4	4506	5	1	-1.1
CC(C)CC1NC(=O)C(CC(C)C)N(CO)C1=O (stereo not drawn)	-15	10	6	3157	4	/	2.6
O=C(Nc1ccc2oc(-c3cccc(F)c3)nc2c1)c1ccccc1F	-52	2	5	10841	-18	6	5.4
Cc1ccc(C=NNc2cccc3cccnc23)c(O)c1	/	6	9	/	71	/	-4.2
COc1ccc(NC(=O)C2CCN(S(=O)(=O)c3ccc4[nH]c(=O)oc4c3)CC2)c(OC)c1	-23	4	5	4518	6	-3	1.0
CCOC(=O)Cc1csc(N/C(=N/S(=O)(=O)c2cc(Br)ccc2OCC)c2ccccc2)n1	2	-5	-7	2245	6	5	7.8
O=C(O)c1oc2ccc(Br)cc2c1-n1cccc1	-15	-6	2	4236	-7	1	2.7
COc1ccc(CNC(=O)CCN2C(=O)c3ccccc3C2=O)cc1	8	0	8	3598	0	-1	0.1
O=S(=O)(Nc1ccc(S(=O)(=O)N2CCCCC2)cc1)c1ccc(Br)s1	-15	/	/	4938	-5	1	18
O=S(=O)(NCC1CCCO1)c1ccc(S(=O)(=O)N2CCCC2)cc1 (stereo not drawn)	-1	-11	-1	12172	-3	11	-3.2
O=C(c1ccc(CS(=O)(=O)c2ccc(Br)cc2)o1)N1CCN(c2ccccn2)CC1	-5	/	/	4171	4	3	5.7
Fc1ccc2c(c1)nnn2C1CCN(Cc2nnnn2CCc2ccccc2)CC1	-12	3	14	9230	-2	-6	3.2
CN(Cc1ccccc1)C1=CC(=[N+]2CCCCC2)CC(C)(C)C1	8	0	5	3603	-3	34	-7.6
COc1ccc(-c2csc(NC(=O)c3ccc(N4C(=O)CCC4=O)cc3)n2)cc1OC	-30	1	6	4198	3	-3	-14
COc1cc(C=CC(=O)O)cc(S(=O)(=O)NCCO)c1OC	/	4	9	/	6	/	6.3
COc1cccc(C=NNC(=O)c2ccc(N3CCCC3=O)cc2)c1	/	2	-4	/	3	/	0.9
CCOC(=O)N1CCN(C(=O)C2CCCN(S(=O)(=O)c3ccc(F)cc3)C2)CC1 (stereo not drawn)	-19	-4	4	2497	-2	-4	-2.6
O=C(NNC(=O)c1ccccc1Br)c1cccs1	-25	0	2	5773	0	-2	18
COc1c(C)cc(C(=O)C2CCCN(C(=O)c3cc(C)n(C)n3)C2)cc1C (stereo not drawn)	-7	-2	-2	6187	2	-4	2.5
C/C(N)=C(/C#N)C(=O)COC(=O)c1ccc(O)cc1	-15	-1	-4	2697	2	-11	1.9
Cc1ccccc1C(=O)OCCN1CCOCC1	-42	9	5	1964	5	-2	7.9
COc1ccc(Cc2nnc(NN)[nH]c2=O)cc1OC	-16	13	11	4200	12	3	0.6
O=C(NC1=NCCS1)c1ccc(Cl)c(S(=O)(=O)N2CCOCC2)c1	-12	-4	-8	3080	-12	7	-2.4
O=C(COC(=O)/C=C/c1cccc(C(F)(F)F)c1)NC(c1ccccc1)c1ccccc1	1	/	/	2541	/	-2	/
c1ccc(-c2ccccc2OCCCN2CCOCC2)cc1	-24	8	-1	2576	3	-1	5.4
COc1ccc2c(c1)C(NS(=O)(=O)OCC(Cl)(Cl)Cl)CCC2 (stereo not drawn)	-18	11	-2	3889	22	-13	21
COc1ccc(CNC(=O)C[C@H]2C[C@H](C(=O)N3CCOCC3)[C@@]3(C)c4[nH]c5cc(CCC(=O)N(C)C)ccc5c4CCN3C2=O)cc1OC	-4	-8	3	3533	1	/	0.6
NC(CC(=O)OC1CCCCC1)C(=O)OC1CCCCC1 (stereo not drawn)	-24	-1	0	2878	6	2	-4.0
O=C(Nc1cccc(OC(=O)N2CCCCC2)c1)N1CCOCC1	38	-1	18	4032	5	-3	3.6
Cc1ccccc1-c1n[nH]c(=S)n1C	-32	-1	2	2221	6	-2	7.4
COc1ccc2[nH]c(C(=O)NCCCN3CCCC3=O)c(C)c2c1	-8	5	-6	5914	3	7	1.1
CC(C)Cn1c(/C=N/Nc2nc3ccccc3[nH]2)nc2ccccc21	9	/	/	2274	/	-4	/
COC(=O)c1ccc(NC(=O)CSc2nncc3ccc(OC)c(OC)c23)cc1	-21	-3	-2	9483	3	1	7.0
Cc1cc(C)nc(N=C(N)Nc2cc([N+](=O)[O-])ccc2C)n1	/	0	11	/	-5	/	0.8

# Compound profiles, from the list above. Order of values: PrP UTR inh, Mtb hypoxia rep, Mtb hypoxia rep growth, Autofluor counter, ugtP null kill, BJeLR lethal, Sa RN4220 lethal
# Cc1ccccc1-c1n[nH]c(=S)n1C reads -32, -1, 2, 2221, 6, -2, 7.4
# COc1ccc2[nH]c(C(=O)NCCCN3CCCC3=O)c(C)c2c1 reads -8, 5, -6, 5914, 3, 7, 1.1
# COc1ccc(CNC(=O)C[C@H]2C[C@H](C(=O)N3CCOCC3)[C@@]3(C)c4[nH]c5cc(CCC(=O)N(C)C)ccc5c4CCN3C2=O)cc1OC reads -4, -8, 3, 3533, 1, /, 0.6

# Pulled by structure from the entries so far (6):
molecule	PrP UTR inh	Mtb hypoxia rep	Mtb hypoxia rep growth	Autofluor counter	ugtP null kill	BJeLR lethal	Sa RN4220 lethal
CC(C)Cn1c(/C=N/Nc2nc3ccccc3[nH]2)nc2ccccc21	9	/	/	2274	/	-4	/
COc1ccc(CNC(=O)C[C@H]2C[C@H](C(=O)N3CCOCC3)[C@@]3(C)c4[nH]c5cc(CCC(=O)N(C)C)ccc5c4CCN3C2=O)cc1OC	-4	-8	3	3533	1	/	0.6
COC(=O)c1ccc(NC(=O)CSc2nncc3ccc(OC)c(OC)c23)cc1	-21	-3	-2	9483	3	1	7.0
c1ccc(-c2ccccc2OCCCN2CCOCC2)cc1	-24	8	-1	2576	3	-1	5.4
COc1ccc2[nH]c(C(=O)NCCCN3CCCC3=O)c(C)c2c1	-8	5	-6	5914	3	7	1.1
NC(CC(=O)OC1CCCCC1)C(=O)OC1CCCCC1 (stereo not drawn)	-24	-1	0	2878	6	2	-4.0

# New compounds follow
molecule	PrP UTR inh	Mtb hypoxia rep	Mtb hypoxia rep growth	Autofluor counter	ugtP null kill	BJeLR lethal	Sa RN4220 lethal
O=C(N/N=C/c1ccccn1)c1cc(-c2ccc(Br)cc2)nc2ccccc12	-10	/	/	6372	/	17	/
COc1cc(C(=O)NCCOc2cccc(C)c2)c(Br)c(OC)c1OC	-6	13	5	4048	5	5	1.1
Cc1ccc(C2=NC3(CCCCCC3)NC2=S)cc1	-30	5	7	9507	2	-9	3.1
COc1ccccc1CC(=O)Nc1cccc(F)c1	-18	6	5	3321	2	0	4.3
CCOc1ccc(NC(=O)Nc2nnc(CC)s2)cc1	-16	/	/	2401	-13	-2	-1.8
O=C(CCN1C(=O)/C(=C/c2cccs2)SC1=S)N1CCCCC1	-15	/	/	5473	-7	14	6.0
COC(=O)N=Cc1c(NCc2ccccc2)nc2c(C)cccn2c1=O	/	2	2	/	-14	/	7.9
O=c1[nH]c2ccccc2c2ccccc12	-15	6	-1	2727	-11	3	3.6
Cc1cc(N2CCN(Cc3ccccc3)CC2)n2nc(C)c(-c3ccccc3)c2n1	-18	0	7	22404*	14	-15	-1.4
Cc1cc(C(=O)NNC(=O)Nc2ccccc2)no1	-8	15	8	6631	0	2	3.2
O=C(Nc1ccccc1)Nc1cccc(Cl)c1Cl	-26	18	-3	2356	-11	-12	-3.2
Cc1c(NC(=O)c2cc3nc(-c4ccc(Cl)cc4)cc(C(F)(F)F)n3n2)c(=O)n(-c2ccccc2)n1C	-3	/	/	4464	1	-3	3.4
O=S(=O)(c1ccc(Nc2ccc3c(c2)OCO3)nc1)N1CCOCC1	-9	2	2	3181	-8	-2	2.7
c1ccc(OCCCn2nnc(-c3ccc(N4CCOCC4)cc3)n2)cc1	-28	-1	-2	7322	1	8	1.9
COc1ccc(Nc2ccc(Cl)cc2)c(C(=O)O)c1	-34	2	16	2472	-31	5	10
O=S(=O)(NC1CCCCC1)c1cccc(-c2nnc(-c3ccccc3)o2)c1	-27	0	0	15537	-3	16	5.8
Cc1c(Cl)cccc1NS(=O)(=O)c1ccccc1	4	7	-9	2866	1	/	9.5
Cc1nnc(Nc2ccc(Cl)cc2)n(N)c1=O	-16	6	1	9562	4	2	2.1
CCCCNS(=O)(=O)c1ccc(OCC(=O)N2CCN(Cc3ccc4c(c3)OCO4)CC2)cc1	-5	14	9	4936	-1	4	3.8
CCSc1nc2ccccc2n1CC(=O)OC	-9	18	11	3381	2	0	1.1
COC(=O)CN1C(=O)C2(C(C#N)=C(N)Oc3n[nH]c(-c4cccs4)c32)c2ccccc21 (stereo not drawn)	-1	/	/	3054	2	1	15
CC1(NC(=S)Nc2ccccc2)CCS(=O)(=O)C1 (stereo not drawn)	/	-2	7	4479	12	4	4.4
Cc1cccc(C2NC(=O)c3ccccc3O2)c1 (stereo not drawn)	-21	5	7	3759	14	1	4.4
Cc1ccc(S(=O)(=O)Nc2ccccc2-c2nc3ccccc3[nH]c2=O)cc1	-12	13	6	3997	1	/	13
Cc1cccc(NC(=O)c2cccc(N3C(=O)C4C5C=CC(C6CC56)C4C3=O)c2)c1 (stereo not drawn)	-6	/	/	5137	/	9	/
COC(=O)c1ccccc1NC(=O)CCCn1nc(C)c2c(C)n(-c3ccccc3)nc2c1=O	6	-3	-8	3975	11	-2	4.8
CCN(c1cccc(C)c1)S(=O)(=O)c1cc(CN2C(=O)c3cccnc3C2=O)ccc1OC	3	3	-8	4008	15	2	6.7
CC(C)(C)c1ccc(C(=O)N/N=C/c2cccc(Cl)c2)cc1	-51	/	/	8424	/	0	/
